miR-21 FLuc: miR-21 reporter, rising signal | HeLa miR-21 FLuc reporter, luciferase, 48 h | Potency, µM (series often up to 38.3 µM), without a hit: at the top dose reporter change, positive = more light | 340,000 tested, under 10 active | AID 2288; active = well fitted rising curve with a large enough effect; inconclusive = small, poorly fitted or top-dose-only effect; inactive = no such curve, though single readings can be large or run the other way;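 also: % of control where 0% means no effect; miR-21 action dims this reporter so a rising signal means less miR-21 action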
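Using DMEM plus 10% FBS, HeLa miR-21-FLuc cells are incubated with test compounds (final up to about 40uM) for 48 hours; firefly luciferase signal is then imaged following reagent-mediated lysis.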
Rango dissoc inh: inhibitors of RanGTP-induced Rango-importin beta complex dissociation | O95149+P62826 | Biochemical FRET Rango-importin beta, RanGTP-induced dissociation | Potency, µM (doses to about 46.1 µM), without a hit: at the top dose activity change, negative = inhibition | 340,000 tested, 0.071% active; active means falling FRET ratio curve, often poorly fitted, with flat reads before Ran was added; inconclusive means other falling curves, or compound fluorescence or quenching; inactive means flat or rising ratio curve;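 also: potency is read from the fitted curve at half-maximal effect; % of control where 0% means no effect; nearly all actives have a fitted effect of over 45% in size; -100% = wells without RanGTP and RCC1; the record marks most hits as doubtful in a second field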
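Compounds preincubate 5 min with complex of recombinant Rango and importin beta in PBS with 1 mM DTT. Ran (0.6 uM) loaded with 2 mM GTP plus 0.2 uM RCC1 starts dissociation; FRET is recorded 45 min later.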
Rango complex inh: Rango-importin beta binding inhibition. Rango CFP/YFP FRET sensor + importin beta, 45 min. 340,000 tested, 0.031% active. Potency, µM (top dose mostly 92.2 µM), inactives show at the top dose inhibition of complex formation. Q14974; active = rising FRET ratio curve, often small or poorly fitted; inconclusive = mostly compound fluorescence or quenching in the first reads; inactive = flat curves in all reads;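 also: potency is read from the fitted curve at half-maximal effect; 0% = DMSO wells and 100% = buffer wells lacking importin beta; nearly all actives have a fitted effect of over 15% in size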
Target sequence (Q14974 whole entry, looked up): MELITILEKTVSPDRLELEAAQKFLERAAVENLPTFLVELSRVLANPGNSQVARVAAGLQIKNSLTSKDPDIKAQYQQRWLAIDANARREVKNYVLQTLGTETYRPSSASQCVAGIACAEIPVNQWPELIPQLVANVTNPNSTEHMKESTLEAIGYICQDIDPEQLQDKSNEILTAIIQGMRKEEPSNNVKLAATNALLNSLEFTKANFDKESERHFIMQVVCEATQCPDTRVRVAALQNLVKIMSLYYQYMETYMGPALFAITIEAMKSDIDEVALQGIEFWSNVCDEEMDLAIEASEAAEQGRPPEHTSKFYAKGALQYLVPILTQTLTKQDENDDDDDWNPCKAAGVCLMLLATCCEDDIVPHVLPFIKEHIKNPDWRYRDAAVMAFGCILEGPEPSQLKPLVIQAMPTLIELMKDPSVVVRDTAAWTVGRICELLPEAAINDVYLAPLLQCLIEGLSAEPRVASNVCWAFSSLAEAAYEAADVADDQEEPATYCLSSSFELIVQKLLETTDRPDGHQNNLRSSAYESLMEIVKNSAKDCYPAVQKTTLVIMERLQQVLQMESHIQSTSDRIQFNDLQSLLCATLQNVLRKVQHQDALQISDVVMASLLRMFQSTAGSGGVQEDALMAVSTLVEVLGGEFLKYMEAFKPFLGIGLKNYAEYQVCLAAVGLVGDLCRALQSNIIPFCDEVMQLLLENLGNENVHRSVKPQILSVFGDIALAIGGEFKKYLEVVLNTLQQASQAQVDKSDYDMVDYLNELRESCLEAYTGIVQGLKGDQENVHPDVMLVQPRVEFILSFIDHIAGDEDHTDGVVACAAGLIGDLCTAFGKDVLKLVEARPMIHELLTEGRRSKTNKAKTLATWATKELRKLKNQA
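Inhibition scored from the CFP 486 nm/YFP 530 nm FRET ratio 45 min after adding 0.125 microM importin beta to 50 nM Rango biosensor preincubated 5 min with compound (room temperature, PBS with DTT, Tween-20, BSA). No-importin wells as positive control.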
GLA inh pH 4.5: blocks human alpha-galactosidase A at pH 4.5 | 230,000 tested, under 10 active | activity change, negative = inhibition, % at 105 µM | P06280 | purified enzyme, 4-MU-alpha-Gal fluorescence, pH 4.5; inconclusive = small, poorly fitted or top-dose-only inhibition, or a rising curve; inactive = flat fitted curve, though single readings scatter; no compound was filed as active;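 also: 0% = full activity with enzyme and -100% = basal without enzyme; dose as in the result columns while the protocol names 77 µM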
Active calls of the source: *; ? = inconclusive; . = no result given; & = joins results of further samples.

molecule | Rango dissoc inh | Rango complex inh | miR-21 FLuc | GLA inh pH 4.5
C/C(=N\Nc1nc(N)cc(Cl)n1)c1cccc([N+](=O)[O-])c1 | 30% | 0.9% | -28% | -5
CCOC(=O)[C@H]1[C@H]2COc3cc(OC)ccc3[C@@H]2N2C(=O)CN(C)C(=O)[C@@]12C | -15% | 2.1% | . | .
O=C1c2cccc3c(O)ccc(c23)C(=O)N1Cc1ccccc1 | ? | ? | -4% | -4
COC(=O)Cc1ccc(NC(=S)N2CCN(CCO)CC2)cc1 | -6% | 3.0% | . | .
COC(=O)C(Cc1cccc(C)n1)(c1ccccc1)c1ccccc1 | -2% | -0.3% | -1% | .
CCN1CCN(S(=O)(=O)c2ccc(Cl)c(C(=O)Nc3ccccc3N3CCCC3)c2)CC1 | -3% | 1.0% | . | .
CCOC(=O)C1(Cc2ccc(Cl)cc2)CCN(C(=O)C2CCCO2)CC1 (centres undefined) | 0% | 2.2% | 0% | -5
O/N=C/c1ccn(-c2ccc(Br)cc2)c1 | 1% | -3.3% | -47% | 3
COc1ccc(NC(=O)CSc2nnc(C3CCCCC3)n2N)cc1OC | 18% | 3.4% | 1% | .
CC(C)(O)CN(CCCNC(=S)Nc1ccccc1)C(=S)Nc1ccccc1 | -14% | 0.5% | . | .
CC(C)c1ccc(S(=O)(=O)Nc2ccc(O)c(Sc3ncn[nH]3)c2)cc1 | 9% | -3.7% | 4% | .
CC(C)[C@@H]1NC(=O)c2cc([N+](=O)[O-])cc(I)c2OCC[C@@H](C(N)=O)NC(=O)[C@H](CCC(=O)O)NC1=O | 23% | -4.3% | -3% | 0
CC(C)(C)OC(=O)N1CCCN(C(=O)Nc2ccc(OC(F)(F)F)cc2)CC1 | -2% | 3.3% | 2% | .
CCOC(=O)c1cccc(N/C=C/C(=O)c2ccc(OC)c(OC)c2)c1 | ? | ? | -46% | -6
CN(C)CCNC(=O)c1ccc2c(=O)n(Cc3ccc(Cl)cc3)c(=S)[nH]c2c1 | -1% | 2.4% | 5% | .
CC(C)CNC(=S)N1CCC(Cc2ccccc2)CC1 | -6% | -4.0% | -1% | .
Cc1ccc(C(=O)NC2CCN(C(=O)N3CCOCC3)CC2)cc1 | 2% | 4.7% | -2% | 1
CSCCC(NC(=O)c1ccco1)C(=O)N1CCCC(C(F)(F)F)C1 (centres undefined) | 15% | 2.2% | . | .
O=C(CCn1c(=O)[nH]c2ccsc2c1=O)N(CCc1ccccc1)Cc1ccccc1 | 17% | -2.9% | 18% | 3
COc1ccc(C)cc1S(=O)(=O)N(C)CC(=O)N1CCN(c2ccccc2)CC1 | ? | -1.1% | 3% | 7
O=[N+]([O-])c1ccccc1SNc1ccccn1 | 1% | -1.6% | -10% | 3
CC(C)NCC(O)COc1cccc2ccccc12 (centres undefined) | 10% | 3.4% | -9% | -5&-21&-2&0
Cc1c(NC(=O)CN2C(=O)NC(C)(c3ccccc3)C2=O)c(=O)n(-c2ccccc2)n1C (centres undefined) | -1% | 0.7% | -8% | 1
Cc1ccc(S(=O)(=O)N2CCN(CC(=O)N/N=C/c3ccccc3OCC(=O)O)CC2)cc1 | 26% | -1.8% | -3% | 1
O=C(NN1C(=O)C2C(c3ccccc3)C=CC(c3ccccc3)C2C1=O)c1ccccc1 (centres undefined) | -15% | 0.5% | -1% | -9
O=[N+]([O-])c1cc([N+](=O)[O-])c(Oc2ccc(F)cc2)cc1NN1CCCCC1 | -19% | -0.5% | 1% | .
COc1ccccc1C(=O)Nc1cccc2cccnc12 | -10% | -0.2% | -40% | .
CCOC(=O)N1CCC(NC(=O)Cc2cn(C)c3ccccc23)CC1 | -6% | 3.7% | -7% | 8
COc1cc(S(=O)(=O)N2CCCCC2)ccc1NC(=O)c1ccc(F)cc1 | -2% | -0.3% | -6% | 2
Cc1ccc(CNC(=S)N(C)C)cc1 | -2% | 1.3% | -3% | 0
Cc1ccc(C(=O)NNC(=S)NC(=O)c2ccc(Cl)cc2Cl)cc1 | 5% | 2.5% | -15% | 2
CCN1CCCC1CN(Cc1cc2ccc(C)cc2[nH]c1=O)C(=S)Nc1ccc(F)cc1 (centres undefined) | 1% | -0.2% | -8% | -4
NC(=O)Cn1c(=O)n(CCC(=O)Nc2ccc(F)cc2)c(=O)c2sccc21 | 0% | -0.9% | -1% | .
CCN1/C(=C2\OC(=S)N(C)C2=O)C=Cc2ccccc21 | 6% | 1.3% | -6% | 5
Cc1ccc(-c2ccc(CCC(=O)O)n2-c2ccc(C(=O)O)cc2)cc1 | -15% | -1.9% | -3% | .
CNc1nc(Cl)c(SC)c(N2CCOCC2)n1 | 7% | 1.2% | -6% | 12
O=c1nc(NC2CCCC2)ccn1Cc1cccc(Br)c1 | 0% | -5.7% | -5% | -5
OC1CCN(c2c3c(nc4cc(-c5ccc(F)cc5)nn24)CCC3)CC1 | 5% | -4.5% | -15% | -1
O=C(CC1C[C@H](C(=O)N2CCCCC2)[C@@]2(CCc3ccccc3)c3[nH]c4ccccc4c3CCN2C1=O)NCCc1ccccn1 (some centres undefined) | -21% | ? | . | .
CCOc1ccc(/C=C/C(=O)c2c(O)cc(C)oc2=O)cc1 | ? | ? | -60% | .
CCOCCCNC(=S)Nc1ccc2nc(N3CCOCC3)cc(C)c2c1 | 1% | -1.6% | -14% | .
CCc1cc(=O)oc2cc(C)cc(OCC(=O)NCC3CCC(C(=O)O)CC3)c12 (centres undefined) | -7% | 3.6% | -3% | .
CCOc1cc(S(=O)(=O)Nc2ccccn2)ccc1F | 15% | 0.2% | 1% | 2
CCn1c(SCC(=O)NNC(=O)c2ccc(OC)cc2)nnc1C(C)C | -4% | ? | -1% | .
COc1ccc(CCNC(=O)C2CCN(c3ccc(N4CCOCC4)nn3)CC2)c(OC)c1 | 1% | ? | -2% | -5
COc1ccc(C(=O)NCC(=O)NCC(=O)OCC(=O)c2cccs2)cc1 | 16% | ? | -11% | 3
O=C(c1ccc(Cl)c(Cl)c1)N1CCCC1 | 6% | 0.5% | 0% | -16
Nn1c(-c2ccccc2)nc2cc(Cl)ccc2c1=O | 15% | -1.2% | 0% | .
O=C(O)c1ccc(-c2nc(-c3ccccc3)cs2)cc1 | 12% | 3.6% | -67% | 4
COc1nc(N(C)S(=O)(=O)c2ccc(C)cc2)nc(C)c1Br | 13% | -6.6% | -2% | .
CN(C)c1ccc(-c2cc(O)c3ncccc3c2)cc1 | -2% | 5.1% | . | .
CC(=O)Nc1ccc(N(C(=O)c2ccco2)C(C(=O)NC2CCCC2)c2cccs2)cc1 (centres undefined) | -1% | -1.8% | 0% | -22
Cc1nc2ccccc2nc1OCc1cccc(Cl)c1 | 2% | -1.4% | -18% | 2
COCCCNC(=O)CN1C(=O)CSc2ncccc21 | 13% | 0.5% | -1% | 4
CCOC(=O)C1CCCN(C(=O)COC(=O)c2cccs2)C1 (centres undefined) | 0% | 0.4% | . | .
CCc1cccc(NC(=O)CNC(=O)N2CC(=O)Nc3ccccc32)c1 | 18% | -0.5% | -5% | .
O=C(c1ccccc1)c1ccc(OC(=O)C2CCCCC2)cc1 | -18% | 0.9% | -4% | .
CCOC(=O)[C@H]1[C@H]2COc3ccc(C)cc3[C@@H]2N2C(=O)CN(Cc3ccco3)C(=O)[C@@]12C | 19% | ? | . | .
O=C(/C=C/c1ccco1)NCC(=O)N/N=C/c1ccc([N+](=O)[O-])cc1 | 25% | 0.6% | 1% | 6
Cc1ccc(/C=C(\NC(=O)c2ccccc2)C(=O)NC2CCN(Cc3ccccc3)CC2)o1 | 0% | 6.5% | -5% | .

Some of the entries so far, field by field:
Cc1nc2ccccc2nc1OCc1cccc(Cl)c1
- Rango dissoc inh: 2%
- Rango complex inh: -1.4%
- miR-21 FLuc: -18%
- GLA inh pH 4.5: 2
COCCCNC(=O)CN1C(=O)CSc2ncccc21
- Rango dissoc inh: 13%
- Rango complex inh: 0.5%
- miR-21 FLuc: -1%
- GLA inh pH 4.5: 4
CCOC(=O)C1CCCN(C(=O)COC(=O)c2cccs2)C1 (centres undefined)
- Rango dissoc inh: 0%
- Rango complex inh: 0.4%
- miR-21 FLuc: .
- GLA inh pH 4.5: .
CCc1cccc(NC(=O)CNC(=O)N2CC(=O)Nc3ccccc32)c1
- Rango dissoc inh: 18%
- Rango complex inh: -0.5%
- miR-21 FLuc: -5%
- GLA inh pH 4.5: .

Next section
molecule | Rango dissoc inh | Rango complex inh | miR-21 FLuc | GLA inh pH 4.5
Nc1ccc(Br)c[n+]1Cc1cccc2cccnc12 | -1% | ? | 4% | 8
Cc1ccc(/C=C2\SC(=S)N(CCC(=O)N3CCCCC3)C2=O)cc1 | 10% | -1.0% | 2% | .
Cc1cc(C)nc(Nc2cccc(C(F)(F)F)c2)n1 | -12% | 0.1% | -7% | .
O=C(OCc1cccc([N+](=O)[O-])c1)c1ccc2ccccc2n1 | 0% | 0.6% | 0% | -8
O=C(NCc1cccnc1)c1cc(Sc2cccc(Cl)c2)nc2ccccc12 | 40% | 4.1% | 11% | 4
CCN(CC)S(=O)(=O)c1ccc(NC(=O)CC(NC(C)=O)c2ccccc2)cc1 (centres undefined) | -3% | 1.2% | -2% | -2
O=C(c1ccccc1NS(=O)(=O)c1cccs1)N1CCOCC1 | -13% | -2.6% | -6% | -2
Cc1c(OCc2ccc(C(=O)O)o2)ccc2c3c(c(=O)oc12)CCC3 | 5% | -5.2% | -18% | -6
CC1(C)CC(=O)c2c(O)cc(OCc3ccc([N+](=O)[O-])cc3)cc2O1 | 3% | 0.0% | -15% | -2
CCc1cc(=O)oc2cc(C)cc(OCC(=O)NCCN3CCOCC3)c12 | -6% | 2.1% | -6% | .
c1ccc(Cn2ncc3c(Nc4ccccc4)ncnc32)cc1 | -6% | -4.2% | -8% | -4
COc1ccc(/C=C/C(=O)N2CCN(S(=O)(=O)c3ccccc3)CC2)cc1OC | 2% | 0.5% | -2% | -4
Cn1c(C(=O)N[C@@H](Cc2ccccc2)C(=O)O)cc2cc(F)ccc21 | -14% | ? | 0% | .
O=C1CN(C(=O)c2ccc(F)c(S(=O)(=O)N3CCOCC3)c2)c2ccccc2N1 | 0% | -4.9% | 2% | 5
CC(=O)c1cccc(-n2nnnc2SCC(=O)N2CCCC2)c1 | -4% | -2.7% | -2% | -4
COc1cc(C(N)=O)cc(Br)c1OCc1ccccc1 | 7% | 6.6% | -14% | -1
O=C1CN(S(=O)(=O)c2ccc(Cl)cc2)c2ccccc2N1 | 7% | -0.2% | 2% | .
CCNc1ccc(S(=O)(=O)N(C)C)cc1NCC(=O)Nc1ccc(Br)cc1F | -8% | -0.3% | 18% | 0
C=COCCNC(=S)N1CCOCCOCCN(C(=S)NCCOC=C)CCOCC1 | 11% | 3.7% | -3% | 7
CCOC(=O)CNC(=O)N1CCCC(C(=O)c2ccc3c(c2)OCO3)C1 (centres undefined) | ? | 0.2% | 0% | 0
CC(O)CNc1ncnc2cc(-c3ccc(F)cc3)sc12 (centres undefined) | -25% | ? | -100% | .
O=C(O)c1ccc(-n2nc(C(F)(F)F)c3c2CCCC3)cc1 | 0%&-4% | 4.2%&-4.0% | -12%&-9% | 6&1
Cc1ccc(S(=O)(=O)N(C)CC(=O)NC2CC(C)(C)NC(C)(C)C2)cc1 | 5% | -0.1% | -7% | -1
Fc1ccccc1-c1nc(-c2ccc(Cl)cc2)no1 | 0% | -3.2% | . | .
COc1ccc(OCC(=O)Nn2c(-c3ccc(C)cc3)nc3ccccc3c2=O)cc1 | -21% | 2.8% | 0% | -9
CCNc1nc(NCC)n2c(SCC(=O)Nc3ccc(C)cc3Br)nnc2n1 | 24% | 0.1% | . | .
Nc1nonc1-n1nnc(C(=O)N/N=C/c2ccc(OCc3cccc(Cl)c3)cc2)c1CN1CCCCC1 | -3% | 2.3% | -20% | .
CCCC(C)C(=O)Nc1ccc2c(c1)OCCO2 (centres undefined) | -5% | -0.7% | -35% | -10
O=C(NCC1CCN(C(=O)c2cccc([N+](=O)[O-])c2)CC1)c1cccc([N+](=O)[O-])c1 | -7% | 0.4% | -2% | .
CCN1C(=O)c2ccccc2S(=O)(=O)c2ccc(C(=O)NCCOC)cc21 | -4% | ? | 0% | .
O=c1c2ccccc2oc2nc(-c3ccco3)n(-c3ccccc3)c(=O)c12 | 17% | -0.1% | -44% | -7
C/C(Cc1ccccc1)=N\NC(=O)CNC(=O)c1cccc(Cl)c1 | 28% | 3.6% | 0% | 4

Compound activity deposited in PubChem by National Center for Advancing Translational Sciences (NCATS).

Only part of the results is shown; rates above refer to the full screens.
